# HNF4A DNA FP: change in binding of human HNF4 alpha to DNA. HNF4a-FITC DNA binding, fluorescence polarization, 1 h. hit rate 0.3% among 360,000. AID 1224865. activity change, % at 10 µM; in the data active means activity change above about 30%, passing the limit was not always enough;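 further: controls were the assay level and a saturating level of protein; the project sought stronger binding though the title names inhibitors; some compounds called inactive have numbers as strong as hits; positive values seem to mean higher polarization but the record does not say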
# Target sequence (P41235 whole entry, looked up): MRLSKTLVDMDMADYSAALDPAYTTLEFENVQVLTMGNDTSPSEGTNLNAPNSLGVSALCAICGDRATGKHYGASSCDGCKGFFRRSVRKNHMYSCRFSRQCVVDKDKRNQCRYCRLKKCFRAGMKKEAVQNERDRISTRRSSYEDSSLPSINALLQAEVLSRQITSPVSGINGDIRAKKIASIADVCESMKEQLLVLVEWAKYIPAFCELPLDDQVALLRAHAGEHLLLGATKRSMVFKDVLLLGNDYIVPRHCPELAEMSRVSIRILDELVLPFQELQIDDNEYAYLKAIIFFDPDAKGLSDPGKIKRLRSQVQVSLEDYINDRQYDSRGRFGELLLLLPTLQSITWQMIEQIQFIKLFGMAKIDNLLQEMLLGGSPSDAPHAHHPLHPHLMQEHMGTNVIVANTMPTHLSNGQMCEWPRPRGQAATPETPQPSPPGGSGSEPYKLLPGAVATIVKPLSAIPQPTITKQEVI
# LANA-H2B inh: blocks KSHV LANA binding to histone H2A/H2B; hit rate 0.6% among 320,000; cell-free LANA-H2A/H2B peptide, fluorescence polarization; inhibition, % (test concentration not listed); AID 2629; in the data active means inhibition mostly above about 10%, no sharp cut-off; inactive means mostly below about 6.7%;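 further: stock transfer was 7.5 nL into about 10 µL; 0% = median of vehicle wells and 100% = median of positive control wells; one replicate is shown; the record names a cut of 25% in any replicate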
# E coli growth: inhibitors of Escherichia coli growth; OD600, 23 h; hits give low values; hit rate 0.21% among 330,000; OD600 absorbance (no concentration beside the values);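 active means OD600 absorbance below the run mean of sample wells minus 3.6 SD, in any replicate, cut at about 0.56 in these data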;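 further: stock transfer was 300 nL into about 60 µL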
# FGF22 binding: shifts melting point of recombinant human FGF22. hit rate 1.5% among 340,000. AID 651658. recombinant FGF22 thermal shift, SYPRO orange fluorescence; percent of sucrose octasulfate shift, DMSO zero. calls only at 9.99 µM;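 active means melting point raised past a set limit in the mean and every replicate; three in four hits are not shown here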
# Target sequence (Q9HCT0 whole entry, looked up): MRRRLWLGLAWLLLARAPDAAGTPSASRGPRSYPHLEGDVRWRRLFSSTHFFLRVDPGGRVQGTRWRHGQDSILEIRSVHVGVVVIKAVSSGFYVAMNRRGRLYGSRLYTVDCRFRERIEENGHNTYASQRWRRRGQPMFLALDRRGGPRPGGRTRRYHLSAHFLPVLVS
# UCH37 DUB inh: human UCH37 deubiquitinating enzyme inhibition; Q9Y5K5; purified proteasome/UCH37, Ub-AMC cleavage fluorescence; inhibition, % (no concentration beside the values); hit rate 0.33% among 330,000; AID 588478;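 active means mean of two replicates above 20%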;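 further: 0% = compound-free wells with enzyme and 100% = wells lacking proteasome; stock transfer was 100 nL into about 20 µL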
#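 Material: Human UCH37 enzyme supplied as purified proteasome complex | Schedule: 30 min compound-proteasome preincubation then 25 min substrate reaction, room temperature | Detection: AMC fluorescence from Ub-AMC cleavage, excitation 355 nm, emission 460 nm | Benchmarks: Wells without proteasome as full block, compound-free enzyme plus substrate as uninhibited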
# Beta2AR agonist: human beta-2 adrenergic receptor agonism by FAP | P07550 | Am2.2-beta2AR cells, FAP receptor internalization, flow cytometry; reference of the scale not given here | AID 504454 | response, % (concentration not given with the values) | hit rate 0.43% among 340,000;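 active means response above a set limit, near 3 SD of response in nonfluorescent compounds, cut at about 42% in these data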;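 further: stock transfer was 100 nL into about 11 µL; a reference agonist was the positive control; negative values mostly stem from fluorescent compounds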
# ALR H2O2 inh: blocks human ALR sulfhydryl oxidase activity | P55789 | purified ALR, DTT oxidation, H2O2 HRP-luminol luminescence | inhibition, % (no concentration beside the values) | hit rate 3.8% among 290,000 | AID 485317;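 active means mean and each replicate at 75% or more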;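 further: stock transfer was 7.5 nL into about 7.5 µL; 0% = neutral wells and 100% = wells with inactivated enzyme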
# * marks the source's active call; other numbers are inactive results; i = inactive; . = no result given.
# Results follow in this order: HNF4A DNA FP	LANA-H2B inh	E coli growth	FGF22 binding	UCH37 DUB inh	Beta2AR agonist	ALR H2O2 inh
1: CN(CC(=O)NCC(=O)Nc1ccc(F)cc1)CC(=O)Nc1ccc(Cl)c(C(F)(F)F)c1
→ 1.3	.	0.67	i	1.9	-1	.
2: COc1ccc(C(=O)NCc2ccc3c(c2)OCO3)cc1S(=O)(=O)N1CCCC1
→ 1.7	.	0.65	i	5.7	0	.
3: C=Cn1ccnc1CC(O)c1ccc(OC)cc1 (stereo unspecified)
→ -0.4	2.5	0.63	i	3.0	0	-2
4: Cc1ccc(C(=O)Nc2ccc(S(=O)(=O)N3CCN(C)CC3)cc2)cc1
→ 3.0	3.4	0.72	.	-1.6	0	-1
5: CCOc1ccc(-n2nc3c(=O)[nH]nc(C)c3c2C)cc1
→ -1.1	6.9	0.67	.	2.1	-11	5
6: COCCCN(C(=S)Nc1ccc(OC)cc1)C(C)c1ccncc1 (stereo unspecified)
→ -7.0	-2.7	0.7	.	2.6	4	.
7: Cn1cc(NC(=O)Nc2ccc(C(F)(F)F)cc2)c(C(F)(F)F)n1
→ 1.0	1.2	.	i	.	1	-8
8: COc1ccc(CCNC(=S)Nc2cc(C)ccc2C)cc1
→ 0.7	3.4	0.78	.	1.2	1	.
9: CCCn1c(CCC(=O)O)ccc1-c1ccccc1
→ 3.1	1.5	0.67	i	-31	-1	26
10: O=C1CCC(C(=O)N(c2ccccc2)C2(C(=O)NC3CCCCC3)CCCCC2)N1 (stereo unspecified)
→ 2.9	-5.8	0.75	.	-2.1	0	-7
11: O=C(OCc1ccc2c(c1)OCO2)c1ccc(S(=O)(=O)N2CCCC2)cc1
→ 0.8	3.2	0.69	.	-2.8	2	-2
12: COc1cccc(C(=O)CN(C(=O)c2ccc(Cl)c(Cl)c2)N2C(=O)C3CCCCC3C2=O)c1 (stereo unspecified)
→ 0.1	2.1	0.69	.	0.9	-1	-6
13: CC(C)c1nnc(NC(=O)Cc2ccc(Br)cc2)s1
→ -0.6	-0.8	0.74	i	2.5	8	-4
14: CCOc1ccc(NC(=O)c2cnsn2)cc1
→ 1.1	9.4	0.68	.	-0.1	2	-9
15: Cn1c(COc2ccccc2O)[n+](C)c2ccccc21
→ -0.8	1.2	0.67	i	-0.7	-4	35
16: Cc1cc(C)n2nc(N)nc2n1
→ -2.0	.	.	i	.	0	.
17: C=C(C)c1ccccc1
→ 2.3	-32	0.66	i	3.9	5	7
18: NC(=O)NOCc1cccc(Cl)c1
→ -0.4	-2.0	0.67	i	1.7	2	-13
19: Cc1ccc(NC(=O)C2CC3CCC2C3)c(Br)c1 (stereo unspecified)
→ -0.3	-1.3	0.7	i	1.1	-4	6
20: COc1ccc(NC(=S)NC(NC(=O)c2cccc(Cl)c2)C(Cl)(Cl)Cl)c([N+](=O)[O-])c1 (stereo unspecified)
→ -1.3	.	0.67	.	-2.3	6	.
21: CC1(c2ccccc2)NC(=O)N(CC(=O)NNC(=O)c2ccccc2F)C1=O (stereo unspecified)
→ 3.2	.	0.69	i	-0.6	8	.
22: N#Cc1cn(CCOc2ccc(F)cc2)c2ccccc12
→ -2.8	1.0	0.73	.	-2.0	-5	5
23: COc1cccc(-c2c(C(=O)N/N=C/c3ccc(C)s3)nnn2-c2nonc2N)c1
→ -2.1	4.8	.	i	.	4	-20
24: CCn1cc(CNC(=O)c2cc(COc3ccc(F)cc3Cl)on2)cn1
→ 7.5	0.8	0.66	i	1.0	-1	-3
25: O=C1C(CO)C(CO)C(CO)C1CO (stereo unspecified)
→ 0.3	.	0.68	.	-1.4	1	.
26: CC1CCCN(C2(O)C(=O)Nc3ccc([N+](=O)[O-])cc32)C1 (stereo unspecified)
→ 3.2	2.1	0.63	i	12	-3	-4
27: O=S(=O)(c1ccc2nnn(O)c2c1)N1CCOCC1
→ -2.9	1.8	0.7	i	2.5	-4	-1
28: COCCNC(=O)CSc1nc2cc(OC)c(OC)cc2c(=O)n1Cc1ccco1
→ 5.2	-6.7	0.69	.	3.5	0	-11
29: C#CCOCCOCCOCCNc1nc(N2CCN(C(=O)[C@H]([C@@H](C)CC)n3cc([C@@H](N)Cc4ccc(O)cc4)nn3)CC2)nc(N2CCN(C(=O)[C@H](CCCCN)n3cc([C@@H](N)CC(C)C)nn3)CC2)n1
→ .	-0.5	.	.	0.4	.	1
30: O=C(NN(C(=O)C1CC1)c1nc2ccccc2s1)C1CC1
→ 1.2	-0.6	0.7	i	3.6	2	-8

# An excerpt from above in order of formula weight, low to high:
# Results follow in this order: HNF4A DNA FP	LANA-H2B inh	E coli growth	FGF22 binding	UCH37 DUB inh	Beta2AR agonist	ALR H2O2 inh
18: NC(=O)NOCc1cccc(Cl)c1
→ -0.4	-2.0	0.67	i	1.7	2	-13
19: Cc1ccc(NC(=O)C2CC3CCC2C3)c(Br)c1 (stereo unspecified)
→ -0.3	-1.3	0.7	i	1.1	-4	6
23: COc1cccc(-c2c(C(=O)N/N=C/c3ccc(C)s3)nnn2-c2nonc2N)c1
→ -2.1	4.8	.	i	.	4	-20

# Retrieved by structure from above (3):
# Results follow in this order: HNF4A DNA FP	LANA-H2B inh	E coli growth	FGF22 binding	UCH37 DUB inh	Beta2AR agonist	ALR H2O2 inh
1: CN(CC(=O)NCC(=O)Nc1ccc(F)cc1)CC(=O)Nc1ccc(Cl)c(C(F)(F)F)c1
→ 1.3	.	0.67	i	1.9	-1	.
10: O=C1CCC(C(=O)N(c2ccccc2)C2(C(=O)NC3CCCCC3)CCCCC2)N1 (stereo unspecified)
→ 2.9	-5.8	0.75	.	-2.1	0	-7
8: COc1ccc(CCNC(=S)Nc2cc(C)ccc2C)cc1
→ 0.7	3.4	0.78	.	1.2	1	.

# Back to the main list, repeating the four entries before the break.
# Results follow in this order: HNF4A DNA FP	LANA-H2B inh	E coli growth	FGF22 binding	UCH37 DUB inh	Beta2AR agonist	ALR H2O2 inh
27: O=S(=O)(c1ccc2nnn(O)c2c1)N1CCOCC1
→ -2.9	1.8	0.7	i	2.5	-4	-1
28: COCCNC(=O)CSc1nc2cc(OC)c(OC)cc2c(=O)n1Cc1ccco1
→ 5.2	-6.7	0.69	.	3.5	0	-11
29: C#CCOCCOCCOCCNc1nc(N2CCN(C(=O)[C@H]([C@@H](C)CC)n3cc([C@@H](N)Cc4ccc(O)cc4)nn3)CC2)nc(N2CCN(C(=O)[C@H](CCCCN)n3cc([C@@H](N)CC(C)C)nn3)CC2)n1
→ .	-0.5	.	.	0.4	.	1
30: O=C(NN(C(=O)C1CC1)c1nc2ccccc2s1)C1CC1
→ 1.2	-0.6	0.7	i	3.6	2	-8
31: C/C(CC(=O)Nc1cccc(Cl)c1Cl)=N\NC(=O)c1ccccc1C
→ -2.1	3.0	.	i	.	-2	-4
32: CCCOC(=O)c1cccc(NC(=O)COc2ccc([N+](=O)[O-])cc2)c1
→ 0.1	0.9	0.7	i	7.3	0	-11
33: CCCN(CCC)CCNc1c(N2CCN(C(=O)OCC)CC2)c(=O)c1=O
→ 1.0	0.4	0.67	i	2.9	1	-2
34: COc1ccc(CN(C(=O)/C=C/c2ccco2)C2CCS(=O)(=O)C2)cc1 (stereo unspecified)
→ -3.4	-6.2	0.7	i	0.7	-2	3
35: Cc1cccc2cc(C#N)c(SCC(=O)NNC(=O)Cc3ccccc3)nc12
→ 2.5	0.3	0.72	.	-1.1	10	-3
36: O=C(O)c1cccc(NS(=O)(=O)c2ccc(C3CCCCC3)cc2)c1
→ -4.7	-2.0	0.67	.	1.0	10	13

# Already shown: an excerpt of the list.
# Results follow in this order: HNF4A DNA FP	LANA-H2B inh	E coli growth	FGF22 binding	UCH37 DUB inh	Beta2AR agonist	ALR H2O2 inh
31: C/C(CC(=O)Nc1cccc(Cl)c1Cl)=N\NC(=O)c1ccccc1C
→ -2.1	3.0	.	i	.	-2	-4
32: CCCOC(=O)c1cccc(NC(=O)COc2ccc([N+](=O)[O-])cc2)c1
→ 0.1	0.9	0.7	i	7.3	0	-11

# From PubChem

# These rows are one share of the data. The share of hits here may be higher or lower than overall.
